Biofilm kill mix: clotrimazole potentiators killing C. albicans biofilm, primary screen, 4-compound mixtures; C. albicans biofilm persisters + clotrimazole, fluorescence viability; primary screen in compound mixtures of four per well; inhibition, % at 7.6 µM; actives 0.02% (n = 120,000); AID 1242, 2008;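 active = inhibition above 30.3% in the primary screen of four-compound pools, then above 30% when the compound was retested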;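 note: compounds exposed to preformed 24 h biofilms for 48 h; the number belongs to the whole pool; some results filed as inactive read as strong as hits; inactives centre near 12; 0% = biofilm with clotrimazole alone and 100% = kill control; retested singly at about 60 µM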
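System: C. albicans CAF4-2 wild-type biofilms; Medium: RPMI/MOPS medium, pH 7.0; Reagent: Clotrimazole, 50 µg/mL; Times: biofilm formation 24 h, compound exposure 48 h, 37 °C; Detection: 2-h Alamar Blue fluorescence, 535/590 nm excitation/emission; Evaluation: percent inhibition of biofilm viability.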
Starred values were filed as active, the others as inactive.

smiles | Biofilm kill mix
COC(=O)C1=C(C)N(c2ccc(C)cc2)/C(=C/c2ccc(O)cc2)C1=O | 15
COc1ccc(OC)c(/C=N/NC(=O)c2cc3c(OC)cc(OC)cc3[nH]2)c1 | 23
O=C(NN=C1CCCC1)c1ccccc1OCCOc1ccccc1 | -8
O=C(NCc1ccc2c(c1)OCO2)C(=O)NCC(c1ccco1)N1CCN(c2ccccc2)CC1 (stereo not given) | 4
Cc1cc(CSc2ccccc2)ccc1NC(=O)COc1ccccc1C | 15
Cn1c(=O)c2c(-c3ccc(OC(F)F)cc3)cc(-c3ccccc3)nc2n(C)c1=O | 13
COc1ccc(C(=O)Nc2ccc(N3CCN(C(C)=O)CC3)cc2)cc1[N+](=O)[O-] | 4
CCn1ccc(C(=O)Nc2ccccc2SC)n1 | 16
CCC(=O)Nc1cccc(-c2cc3ccccc3oc2=O)c1 | 1
O=C(CSc1nnnn1C1CCCCC1)Nc1ccccc1F | 4
C/C=C/c1ccc(OCCCCN2CCC(C)CC2)c(OC)c1 | 6
N#Cc1ccc(-c2csc(NC(=O)c3ccc(S(=O)(=O)N4CCc5ccccc5C4)cc3)n2)cc1 | 11
COc1ccc(-c2n[nH]c(=S)n2-c2ccc(C)cc2)cc1 | 18
CCCC(=O)Nc1ccc(-c2cnc(-c3ccc(NC(=O)CCC)cc3)nc2)cc1 | 13
O=c1[nH][nH]c2c(N=Cc3ccccc3O)ccc(F)c12 | 18
Cc1cc(C)c2oc(C(=O)Nc3nnc(C(C)C)s3)cc(=O)c2c1 | 11
CCS(=O)(=O)Nc1ccc(C2=NN(C(C)=O)C(c3cccs3)C2)cc1 (stereo not given) | 16
Cc1cccc(-n2c(C)cc(/C=N/NC(N)=S)c2C)c1 | 14
COc1ccc(Cl)cc1NC(=O)c1[nH]nc(OC)c1[N+](=O)[O-] | 21
CCC(=O)N1CCC2(CC1)Oc1ccc(Cl)cc1C(=O)C21CC(c2cccnc2)=NO1 (stereo not given) | 10
COc1ccc(-c2cc(=O)c3cc(C)ccc3[nH]2)cc1 | 13
CCOc1ccc(C/C(O)=C2\C(=O)CC(C)(C)CC2=NCC(=O)O)cc1OCC | 10
CS/C(=N\S(=O)(=O)c1cccs1)Nc1ccc(Br)cc1F | 23
O=C1NC2CCc3nc4ccccc4c(=O)n3C2=Nc2ccccc21 (stereo not given) | 3
Cc1cc(SCC(=O)N/N=C/c2ccco2)nc2ccccc12 | 17
C=CCOc1ccc2c(OC)c3ccoc3nc2c1OC | 4
C/C(CC(=O)Nc1ccc([N+](=O)[O-])cc1)=N/NC(=O)C1C2CCCCC21 (stereo not given) | 26
CC(C)(C)c1ccc(Cn2nc(CC(=O)O)c3ccccc3c2=O)cc1 | 4
O=C(Cc1ccc(Br)cc1)OCC(=O)N1CCc2ccccc2C1 | 17
COc1cc(/C=C/C(=O)O)ccc1OS(=O)(=O)c1cc(C)ccc1C | -5
O=C(NC1CCN(C(=S)NCCc2ccccc2)CC1)C1CCCCC1 | 21
CCn1c(=O)oc2cc(NC(=O)CCl)ccc21 | 17
Cc1ccc(C)c(NC(=O)CSc2nc(N)c(NC(=O)c3cccs3)c(=O)[nH]2)c1 | 3
Cc1ccc(Oc2nc3c(c(=O)n(C)c(=O)n3C)n2C)cc1C | 18
COc1ccc(CCNC(=O)C(=O)NCC2CCCO2)cc1OC (stereo not given) | 10
COc1ccccc1NC(=O)C1=C(C)NC(=O)NC1c1cc(C)cs1 (stereo not given) | 11
Cc1ccc(Oc2nnc(-c3cccs3)c3ccccc23)cc1 | 2
O=C(O)c1ccccc1C(=O)c1ccc2c(c1)N(Cc1cccc(F)c1)C(=O)CO2 | 4
CCCn1c(-c2ccncc2)n[nH]c1=S | 10
O=c1cc(O)c2ccccc2n1Cc1ccccc1F | 7
Cc1ccccc1C(=O)O/N=C(\c1ccccc1)c1ccccn1 | 16
Cc1cccc(CSCCNC(=O)c2ccc(CN3CCOCC3)cc2)c1 | 4
COc1ccc(C(=O)NC(=S)NNC(=O)[C@H]2C[C@@H]2c2ccccc2)cc1OC | 18
CCN(CC(=O)Nc1ccc(OC)cc1)CC(=O)Nc1ccc(Cl)cc1F | 4
CCOc1ccc(N2C(=O)Nc3ccccc3C2(O)C(=O)NCc2ccc(OC)cc2)cc1 (stereo not given) | 3
Cc1cccc(N(CC(=O)NC2CCCC2)C(=O)CS(=O)CC(=O)Nc2ccc3c(c2)OCO3)c1C (stereo not given) | 16
Cc1c(/C=C2\SC(=Nc3cccc(C(=O)O)c3)NC2=O)c2ccccc2n1C | 2
CCO[C@H]1OC(C(=O)N2CCN(Cc3ccc4c(c3)OCO4)CC2)=C[C@@H](c2ccc3c(c2)OCO3)[C@@H]1CCCO | 21
COc1ccccc1NS(=O)(=O)c1cc(N/C(=N\S(=O)(=O)c2ccccc2)c2ccc(F)cc2)ccc1Cl | 11
CC(=O)c1ccc(N2CCN(CC(=O)Nc3ccccc3N3CCOCC3)CC2)cc1 | 6
CCN(CC)c1cc(C)c2ccccc2n1 | 12
Cn1ncc(Br)c1C(=O)Nc1cccc(C(F)(F)F)c1 | 16
O=C(COC(=O)CSc1cccc2cccc(Cl)c12)Nc1ncc(C(F)(F)F)cc1Cl | 17
COc1cc2c(cc1OC)CN(C(=S)Nc1ccc(C)cc1C)CC2 | 10
Cc1ccc(OCC(=O)NNC(=O)c2cc(C)[nH]n2)cc1 | 12
O=C(N/C(=C/c1cccc(Br)c1)c1nc(=S)[nH][nH]1)c1ccccc1 | -11

Three entries from above in another layout:
O=C(N/C(=C/c1cccc(Br)c1)c1nc(=S)[nH][nH]1)c1ccccc1
  Biofilm kill mix = -11

Cn1ncc(Br)c1C(=O)Nc1cccc(C(F)(F)F)c1
  Biofilm kill mix = 16

O=C(COC(=O)CSc1cccc2cccc(Cl)c12)Nc1ncc(C(F)(F)F)cc1Cl
  Biofilm kill mix = 17

More results.
smiles | Biofilm kill mix
CC(C)CC(=O)NC(=S)Nc1cccc(NC(=O)c2ccccc2)c1 | 3
Cc1nc2ccc(NC(=O)c3ccc4ccccc4n3)cc2s1 | -18
COc1cccc(CN2CCN(Cc3nc(-c4cccs4)oc3C)CC2CCO)c1 (stereo not given) | 12
COc1ccc(/C=C/C(=O)OCC(=O)NCc2ccco2)cc1OC | 5
CC1CCCCC1NC(=O)COC(=O)COc1ccccc1Cl (stereo not given) | 14
O=C1OC(/C=C/c2ccccc2)=NC/1=C/c1ccco1 | 15
COc1ccccc1C(=O)Nc1ccc(C2=NNC(=O)CC2C)cc1 (stereo not given) | 13
CC1=NN(C(=O)c2ccc(Cn3cc([N+](=O)[O-])cn3)cc2)C(O)(C(F)(F)F)C1 (stereo not given) | 5
COc1ccccc1NC(=O)COC(=O)Cc1cccs1 | 14
CN1C(=O)C2(c3ccccc31)c1c(oc3ccccc3c1=O)C(=O)N2CCCO (stereo not given) | 7
Cc1nn(C)cc1/C=N/NC(=O)C1(O)c2ccccc2-c2ccccc21 | 14
CC(C)(C)c1cc(C(C)(C)C)n(-c2ccccc2)n1 | 14
O=C(NCc1ccc(F)cc1)Nc1ccc(Cl)cc1 | 14
COc1cc(/C=C(\C#N)C(=O)NCc2ccccc2)ccc1OCc1ccc(C(=O)O)cc1 | 32
COc1ccc(CNC(=O)CSc2nnc(C)n2-c2ccc(F)cc2)cc1 | 19
O=C(CSc1ccc(C(F)(F)F)cc1[N+](=O)[O-])Nc1ccc2ccccc2c1 | 14
COc1cccc(-c2ccc(SCC(=O)N3CCOCC3)nn2)c1 | 12
O=C(C1CCCN1S(=O)(=O)c1cccc2nsnc12)N1CCCCCC1 (stereo not given) | 23
COc1cc(OC)c2c(=O)cc(-c3cccnc3)oc2c1 | 19
Oc1ccc(/C=N/N2CCN(C3c4ccccc4-c4ccccc43)CC2)cc1O | 9
CSc1ncccc1C(=O)OCC(=O)c1ccccc1Br | -1
COc1ccc(CCNC(=O)COC(=O)/C=C/c2ccc(OCC#N)c(OC)c2)cc1OC | 3
CC(=O)CC(=O)Nc1ccc(Nc2ccccc2)cc1 | 12
Cc1ccc(C2CC(=O)C=C(NCC(C)C)C2)cc1 (stereo not given) | 19
CCOC(=O)c1sc2nc(C)nc(SCC(=O)N(CC)C3CCS(=O)(=O)C3)c2c1C (stereo not given) | 3
CCOCCCN1C(=O)CN(C2CCC(C)CC2)C(=O)C1c1ccc(C)cc1 (stereo not given) | 19
O=C1C2C3C=CC(C3)C2C(=O)N1CCC(=O)N1CCc2ccccc21 (stereo not given) | 12
O=C(O)c1cccc(Nc2nc(-c3cccnc3)nc3ccccc23)c1 | 9
S=C(NC12CC3CC(CC(C3)C1)C2)N1CCOCC1 | 24
CC(=O)/C(=N/Nc1cccc(Cl)c1)Sc1nnc(C(O)c2ccccc2)n1-c1ccccc1 (stereo not given) | -2
Cc1[nH]n(-c2ccccc2)c(=O)c1/C=N/N1CCOCC1 | 23
Cc1ccc(CN2C(=O)c3ccccc3NC23CCN(Cc2ccccc2)CC3)cc1 | 18

Reformatted as labelled records: entries from further up.
> CCOC(=O)c1sc2nc(C)nc(SCC(=O)N(CC)C3CCS(=O)(=O)C3)c2c1C (stereo not given)
  Biofilm kill mix = 3

> O=C1C2C3C=CC(C3)C2C(=O)N1CCC(=O)N1CCc2ccccc21 (stereo not given)
  Biofilm kill mix = 12

Carrying on.
smiles | Biofilm kill mix
COc1cc(/C=C2\SC(=S)N(CC(=O)Nc3ccccn3)C2=O)cc(OC)c1OC | 14
O=C(O)c1ccccc1NS(=O)(=O)c1ccc(NNC(=S)Nc2ccc(OC(F)F)cc2)c([N+](=O)[O-])c1 | 14
COC(=O)C1=CN(Cc2ccc(OC)cc2)C=C(C(=O)OC)C1c1ccsc1 | 18
CC(=O)Nc1ccccc1P(=O)(c1ccccc1)c1ccccc1OC(C)=O (stereo not given) | 7
O=C(Nc1ccccc1)Nc1cccc2nsnc12 | 17
CC(C)(C)Nc1nc(Cl)nc(N(C#N)CN2C(=O)c3ccccc3S2(=O)=O)n1 | 7
CCOC(=O)c1c(NC(=S)Nc2ccc(OC)cc2)sc2c1CCC2 | 16
Cc1cc(C)nc(SCc2nnc(SCC(N)=O)o2)n1 | 4
CN(C)C(=O)CCSc1nnc(-c2ccco2)o1 | 14
Cc1cccc(N2CC(c3nc4ccccc4n3C)CC2=O)c1C (stereo not given) | 19
Nc1cc(OCC(F)(F)F)cc([N+](=O)[O-])c1 | 12
COC(=O)c1c(C(C)=O)c(C)n(C)c1C | 15
Cc1cccc(N(C(=O)c2ccc(CN3CCOCC3)o2)C(C(=O)NC(C)(C)C)c2ccc(F)cc2)c1 (stereo not given) | 7
O=C(N/N=C/c1c[nH]c2ccc(Br)cc12)c1ccc2c(c1)OCO2 | 2
CCO[C@H]1OC(C(=O)N2CCN(Cc3ccccc3)CC2)=C[C@@H](c2ccc(C(F)(F)F)cc2)[C@@H]1CCCO | 15
Nn1c(Cc2ccccc2)nc2sc3c(c2c1=O)CCC3 | 20
CC(C)OC(=O)Nc1ccc2c(c1)N(C(=O)N1CCN(C)CC1)c1ccccc1CC2 | 13
COc1ccccc1-c1cc(C(=O)N/N=C\c2cnn(C)c2C)c2ccccc2n1 | 14
Cc1nc(N2CCC(C)CC2)c(C#N)c(C)c1[N+](=O)[O-] | -7
CCN(C(=O)CSc1nc2c(cnn2-c2ccccc2)c(=O)[nH]1)C1CCS(=O)(=O)C1 (stereo not given) | 6
O=C(CNc1cc(S(=O)(=O)N2CCOCC2)ccc1N1CCCC1)N1CCc2ccccc21 | 1
O=C(Nc1nonc1-c1ccc(Cl)cc1)c1ccccc1 | 25
COC(=O)c1ccc(COc2ccccc2[N+](=O)[O-])o1 | 22
CC(C)(C)NC(=O)CN(C(=O)c1csnn1)c1ccccc1-c1ccccc1 | 22
CCCCOC(C)n1cc(F)c(=O)[nH]c1=O (stereo not given) | 11
CCCc1cc(=O)[nH]c(SCC(=O)N2CCN(S(=O)(=O)c3ccccc3)CC2)n1 | 5
CCCCCCN=C1CC(C)(C)CC(=O)/C1=C(/O)CCC | 19
Cn1nc(C(F)(F)F)c(CNC(=O)C(C)(C)CCl)c1N1CCOCC1 | 13
O=Cc1c(Cl)nc2ccccn12 | 2
CCCN1CCN(CCCNC(=S)Nc2ccc(OC)cc2)CC1 | 5
Nc1c(Cl)ncnc1N/N=C/c1ccc(O)cc1 | 7
CCS(=O)(=O)CCSC1OC(COC(C)=O)C(OC(C)=O)C(OC(C)=O)C1OC(C)=O (stereo not given) | 16
CC(NC(=O)CCCn1cc([N+](=O)[O-])cn1)c1ccccc1 (stereo not given) | 18
CCOc1cc(/C=C/c2nc3ccccc3s2)ccc1OCC(=O)N1CCOCC1 | 13
Cc1ccc2nc(N3CC(=O)Nc4ccccc43)nc(-c3ccccc3)c2c1 | 20
CCCn1c(SCC(=O)Nc2ccc(OC)cc2[N+](=O)[O-])n[nH]c1=O | 17
Cc1ccc(/C=C/C(=O)NCc2ccc(S(N)(=O)=O)cc2)o1 | 10
COc1ccc(N/C(C)=C/C(=S)Nc2ccccc2)cc1 | -3
CC(C)c1ccc(NC(=O)Cn2cccc2C2=NC(c3ccccc3)CO2)cc1 (stereo not given) | -14
Cc1cc(NC(=O)CSc2nc3ccsc3c(=O)n2CCCC(=O)NCCc2ccccc2)no1 | 17
CC(=O)N1c2ccccc2Oc2cc3ccccc3cc21 | 10
COCCCN(C(=S)Nc1cc(Cl)cc(Cl)c1)C(C)c1ccccn1 (stereo not given) | 18
CCN1CCN(c2nc(Nc3cccc(C)c3)nc(N)c2[N+](=O)[O-])CC1 | 7
COc1ccc(NC(=O)c2cn3c(nc4ccccc43)c(C#N)c2C)cc1 | 17

Screens from PubChem BioAssay.

Not all compounds are listed; the hit share may differ from the screen's.
